Assay outcomes from PubChem.
Vaccinia Venus = inhibitors of vaccinia virus (Venus reporter). Vaccinia virus Venus reporter expression, fluorescence. Potency, µM (doses to about 36.5 µM), inactives show top-dose activity change, negative = inhibition, most hits filed as inhibitors. 330,000 tested, 0.46% active. AID 720580; active means well fitted inhibition curve with a large enough effect; inconclusive means small, poorly fitted or top-dose-only effect; inactive means no such curve, though single readings can be large or run the other way; tested in A549 cells; also: nearly all actives have a fitted effect of over 30% in size; inactives centre near -10
VACV mCherry inh = vaccinia inhibition (mCherry reporter); Vaccinia virus mCherry reporter infection, fluorescence; about a quarter of the inactives have no number; Potency, µM (series often up to 36.5 µM), for inactives: at the highest dose activity change, negative = inhibition, hits mostly inhibitors; 310,000 tested, 0.63% active; active = well fitted inhibition curve with a large enough effect; inconclusive = small, poorly fitted or top-dose-only effect; inactive = no such curve, though single readings can be large or run the other way; tested in A549 cells; also: nearly all actives have a fitted effect of over 35% in size; inactives centre near -10
Active calls of the source: *; i = inactive; ? = inconclusive; · = no result given; & = joins results of further samples; [ ] = remark or other dose. % is scaled to controls: 0 for no effect and ±100 for the full control effect; potency is read from the fitted curve at half-maximal effect.

structure | Vaccinia Venus | VACV mCherry inh
Cc1ccccc1NC(=O)COc1ccccc1C(=O)Nc1ccccc1 | -19.9% | -2.8%
CN1C(c2ccccc2)CCOS1(=O)=O (stereo not drawn) | -14.7% | ?
CCCOc1ccc(NC(=O)C2CC(=O)N/C(=N/N=C(\C)CCc3ccc4c(c3)OCO4)S2)cc1 (stereo not drawn) | -0.5% | -9.0%
NS(=O)(=O)c1cc2c(cc1Cl)NCNS2(=O)=O | -12.2%&-12.6%&-8.9% | -11.2%&-17.7%
CN1C2CCC1CC(OC(=O)c1c[nH]c3ccccc13)C2 (stereo not drawn) | -8.3%&-10.1% | -0.8%
O=C(NCCCN1CCN(c2cccc(Cl)c2)CC1)c1nnc(Cc2ccc(F)cc2Cl)o1 | ? | -14.0%
CN1CCN(c2ncccc2S(=O)(=O)N2CCCCC2)CC1 | -6.4% | -16.3%
CCOc1ccc(N(C(=O)CC(C)C)S(=O)(=O)c2ccc3c(c2)oc(=O)n3C)cc1 | -18.8% | -26.1%
CCCCS(=O)CC(O)CSc1nc(-c2ccc(OC)cc2)cc(-c2ccccc2)c1C#N (stereo not drawn) | -6.5% | -11.1%
Cc1cccc(C(=O)NCC(=O)N2CCN(S(=O)(=O)c3ccccc3)CC2)c1 | -8.3% | -9.7%
COc1ccc(C2=Cc3ccc(OC(C)=O)cc3OC2)cc1 | -3.8% | -13.0%
Cc1cc(NC(=O)C2COc3ccccc3O2)no1 (stereo not drawn) | -2.1% | i
Cc1ccccc1Nc1nc(N)nc(COc2ccc(C#N)cc2)n1 | -8.0% | -13.0%
CN1CCN(C(=S)c2cn(Cc3cccc(F)c3)c3ccccc23)CC1 | -18.7% | -2.9%
COc1ccc(NC(=O)c2cc([N+](=O)[O-])ccc2N2CCN(C)CC2)cc1 | -16.2% | i

(next part)
structure | Vaccinia Venus | VACV mCherry inh
CC1CN=C(Nc2ccc(N(C)C)cc2)S1 (stereo not drawn) | -11.5% | -17.3%
CC1=C(C(=O)Nc2ccccc2F)C(c2cccs2)NC(=S)N1 (stereo not drawn) | 4.3% | -2.5%
Cc1[nH]c2ccccc2c1C(=O)COC(=O)c1ccccc1O | -19.9% | i
COc1ccccc1N(C)S(=O)(=O)c1ccc(C(=O)N(C)Cc2cccc(OC)c2OC)cc1 | -16.7% | -12.3%
Cc1cc(C(F)(F)F)n2ncc(-c3ccccc3)c2n1 | -12.1% | -8.2%
Cc1ccc(N/C=C2\CCCCC2=O)c(C)c1 | -11.0% | -7.8%
Cc1sc2ncn(CC(=O)Nc3ccc(C(F)(F)F)cc3)c(=O)c2c1S(=O)(=O)N1CCN(C)CC1 | -13.5% | -8.4%
CC(C)NC(=O)C1(C)CSCC(=O)N1CCCN1CCOCC1 (stereo not drawn) | 1.3% | -3.5%
O=C(CCSc1ccc(Cl)cc1)N1CCOCC1 | -5.0% | -9.7%
CCNC(=S)NNC(=O)c1cccnc1 | -4.7% | -11.8%
COc1ccc(OC)c(C2C(C(=O)Nc3ccccc3OC)=C(C)Nc3c(C(=O)Nc4ccc(F)cc4)cnn32)c1 (stereo not drawn) | -9.2% | i
CCN(C(=O)Cn1c(SCC(=O)Nc2ccc(OC)cc2)nc2ccccc21)c1cccc(C)c1 | -6.3% | -18.0%
O=S(=O)(c1ccc(F)cc1)N(CCO)CC(O)Cn1c2ccccc2c2ccccc21 (stereo not drawn) | -25.5% | -11.1%
O=c1[nH]cc(S(=O)(=O)N2CCN(c3cccc(C(F)(F)F)c3)CC2)c(=O)[nH]1 | 4.0% | -13.4%
CCCCCCCCN1C(=O)[C@H](CC(=O)N2CCN(C(=O)C3CC3)CC2)C[C@@]2(C(=O)OCC)CCCC=C12 | -13.2% | -18.8%

(cont.)
structure | Vaccinia Venus | VACV mCherry inh
CCOc1ccc(NC(=O)COC(=O)CN2CCCCCC2=O)cc1 | -13.1% | i
CC(CC1CC(C)(C)OC1=O)C(=O)Nc1ccc([N+](=O)[O-])cc1 (stereo not drawn) | 4.7% | -9.2%
Cc1ccc(C)c(NC(=O)CCCCCN2C(=O)[C@@H]3Cc4ccccc4CN3C2=O)c1 | -8.7% | -13.5%
O=C(COC(=O)c1ccncc1)NCCCc1ccccc1 | 3.6% | i
Cc1ccc(-c2nnc3n2N=C(c2ccc(Br)cc2)CS3)cc1 | -13.0% | -15.6%
O=C(NCCSCc1ccco1)c1ccc(=O)[nH]c1 | -3.4% | -6.1%
CCCCNC(=O)C(NC(=O)c1ccc2c(c1)OCO2)C(=O)c1ccccc1 (stereo not drawn) | -11.3% | -19.5%
CCOC(=O)c1cccc(NC(=O)CSc2nnc(COc3ccc(Cl)cc3)o2)c1 | -12.4% | -3.7%
COc1ccc(N2C(=O)CC(N3CC=C(c4ccccc4)CC3)C2=O)cc1 (stereo not drawn) | 3.0% | -4.4%
O=C(CCCN1C(=O)c2ccccc2C1=O)Oc1ccc(F)cc1 | -4.0% | -14.3%
CC(C)COC(=O)c1ccccc1C(=O)OCC(C)C | -2.3% | i
O=C(NCc1ccccc1Cl)c1cnc2sc(N3CCOCC3)nn2c1=O | 1.7% | 0.7%
OCC1CSC(=S)N1Cc1ccccc1 (stereo not drawn) | 4.1% | 1.9%
CCOc1ccc(CCNc2nc3c(-c4ccc(C)cc4)nnn3c3ccccc23)cc1OCC | -1.5% | 5.4%
Cc1ccc(CNC(=S)N(C)C)cc1 | -4.5% | ?

(listing goes on)
structure | Vaccinia Venus | VACV mCherry inh
Cc1ccc(C(=O)NNC(=S)NC(=O)c2ccc(Cl)cc2Cl)cc1 | -13.8% | -29.5%
O=c1c(-c2ccccc2)cocc1-c1ccccc1 | -11.0% | -1.3%
Cc1ccc(S(=O)(=O)N2CCN(CC(=O)N/N=C/c3ccccc3OCC(=O)O)CC2)cc1 | 3.9% | i
O=C(NN1C(=O)C2C(c3ccccc3)C=CC(c3ccccc3)C2C1=O)c1ccccc1 (stereo not drawn) | -22.0% | i
Cc1cn2c(=O)c(S(=O)(=O)Nc3ccc(N4CCOCC4)cc3)c(C)nc2s1 | -10.6% | -13.5%
O=[N+]([O-])c1cc([N+](=O)[O-])c(Oc2ccc(F)cc2)cc1NN1CCCCC1 | -12.3% | ?
COc1ccccc1C(=O)Nc1cccc2cccnc12 | -19.6% | i
CCOC(=O)N1CCC(NC(=O)Cc2cn(C)c3ccccc23)CC1 | -5.3% | ·
COc1ccc(C)cc1S(=O)(=O)N(C)CC(=O)N1CCN(c2ccccc2)CC1 | -5.4% | i
O=[N+]([O-])c1ccccc1SNc1ccccn1 | -5.6% | -15.3%
Cc1c(NC(=O)CN2C(=O)NC(C)(c3ccccc3)C2=O)c(=O)n(-c2ccccc2)n1C (stereo not drawn) | -3.7% | i
CC(C)CNC(=S)N1CCC(Cc2ccccc2)CC1 | -17.5% | ?
Cc1ccc(NC(=O)CSc2nc3ccccc3c(=O)n2CCC(=O)NC2CCCCC2)cc1C | -29.7% | ?
CC(C)[C@@H]1NC(=O)c2cc([N+](=O)[O-])cc(I)c2OCC[C@@H](C(N)=O)NC(=O)[C@H](CCC(=O)O)NC1=O | -4.6% | i
CC(C)(C)OC(=O)N1CCCN(C(=O)Nc2ccc(OC(F)(F)F)cc2)CC1 | -4.7% | i

Remaining list, next part:
structure | Vaccinia Venus | VACV mCherry inh
CCOC(=O)c1cccc(N/C=C/C(=O)c2ccc(OC)c(OC)c2)c1 | -19.6% | -3.7%
CN(C)CCNC(=O)c1ccc2c(=O)n(Cc3ccc(Cl)cc3)c(=S)[nH]c2c1 | -21.5% | -10.3%
CCCC(=O)Nc1ccc(NC(=O)c2sc3ccccc3c2Cl)cc1 | 5.1% | -8.1%
COc1ccc(NC(=O)CSc2nnc(C3CCCCC3)n2N)cc1OC | 2.4%[7.34 µM] | -14.4%[7.34 µM]
CC(C)(O)CN(CCCNC(=S)Nc1ccccc1)C(=S)Nc1ccccc1 | -6.4% | -12.1%
C=CCn1c(SCCC)nc2ccccc2c1=O | 6.9% | -23.8%
Cc1ccc(/C=C(\NC(=O)c2ccccc2)C(=O)NC2CCN(Cc3ccccc3)CC2)o1 | -14.5% | -23.5%
Nc1ccc(Br)c[n+]1Cc1cccc2cccnc12 | 17.1% | -11.2%
Cc1ccc(/C=C2\SC(=S)N(CCC(=O)N3CCCCC3)C2=O)cc1 | 2.0% | -13.5%
CCOC(=O)[C@H]1[C@H]2COc3ccc(C)cc3[C@@H]2N2C(=O)CN(Cc3ccco3)C(=O)[C@@]12C | -5.4% | -12.3%
COCCCNC(=O)CN1C(=O)CSc2ncccc21 | -4.9% | 3.0%
CCOC(=O)C1CCCN(C(=O)COC(=O)c2cccs2)C1 (stereo not drawn) | -2.6% | -10.8%
O=C(c1ccc(Cl)c(Cl)c1)N1CCCC1 | -6.9% | i
COc1ccc(C(=O)NCC(=O)NCC(=O)OCC(=O)c2cccs2)cc1 | -3.2% | -8.7%
C[N+]1(C)C2CCC1CC(OC(=O)C(CO)c1ccccc1)C2 (stereo not drawn) | -0.4% | i

Remaining list, next part:
structure | Vaccinia Venus | VACV mCherry inh
Nn1c(-c2ccccc2)nc2cc(Cl)ccc2c1=O | -13.4% | -12.5%
O=C(O)c1ccc(-c2nc(-c3ccccc3)cs2)cc1 | -23.8% | -4.4%
CC(=O)Nc1ccc(N(C(=O)c2ccco2)C(C(=O)NC2CCCC2)c2cccs2)cc1 (stereo not drawn) | 5.4% | -9.5%
Cc1nc2ccccc2nc1OCc1cccc(Cl)c1 | -18.5% | -1.2%
CCc1cc(=O)oc2cc(C)cc(OCC(=O)NCC3CCC(C(=O)O)CC3)c12 (stereo not drawn) | -2.7% | -0.8%
CCOc1cc(S(=O)(=O)Nc2ccccn2)ccc1F | -18.8% | ·
COc1ccc(CCNC(=O)C2CCN(c3ccc(N4CCOCC4)nn3)CC2)c(OC)c1 | 0.6% | 4.7%
CCn1c(SCC(=O)NNC(=O)c2ccc(OC)cc2)nnc1C(C)C | 0.5% | 3.0%
O=C(CC1C[C@H](C(=O)N2CCCCC2)[C@@]2(CCc3ccccc3)c3[nH]c4ccccc4c3CCN2C1=O)NCCc1ccccn1 (stereo partly drawn) | ? | 10µM*
CCN(CC)C(=O)C1=C(C)N(Cc2ccc(F)cc2)C(=O)C(CC(=O)NCCCN(C)C)C1 (stereo not drawn) | 0.6% | -10.9%
O=C(c1ccccc1)n1nc(-c2ccccc2)nc1NCc1ccc(F)cc1 | 0.0% | 1.0%
CCOc1ccc(NC(=O)Cn2c(=O)n(CC3CCC(C(=O)NCCc4ccccc4)CC3)c(=O)c3ccccc32)cc1 (stereo not drawn) | -12.2% | -11.1%
CCOc1ccc(/C=C/C(=O)c2c(O)cc(C)oc2=O)cc1 | 22.0% | 19.8%
COC(=O)[C@@]12C[C@@H](CC(=O)N3CCC(c4ccccc4)CC3)C(=O)N(Cc3cccc4ccccc34)C1=CCC(C)(C)C2 | -20.9% | ?
O=c1nc(NC2CCCC2)ccn1Cc1cccc(Br)c1 | -17.7% | -17.2%

Later entries
structure | Vaccinia Venus | VACV mCherry inh
OC1CCN(c2c3c(nc4cc(-c5ccc(F)cc5)nn24)CCC3)CC1 | -10.9% | -20.9%
Cc1ccc(CNC(=O)c2oc3ccc(S(=O)(=O)N4CCC(C)CC4)cc3c2C)cc1 | -23.3% | -17.6%
Cc1ccc(-c2ccc(CCC(=O)O)n2-c2ccc(C(=O)O)cc2)cc1 | -7.1% | i
CCN1/C(=C2\OC(=S)N(C)C2=O)C=Cc2ccccc21 | -7.8% | i
CNc1nc(Cl)c(SC)c(N2CCOCC2)n1 | -18.0% | -2.9%
COc1cc2nc(NCCC(C)C)n3nc(-c4ccccc4)nc3c2cc1OC | -6.3% | -19.6%
COc1cc(C(=O)Nc2ccc(S(=O)(=O)Nc3ncccn3)cc2)c([N+](=O)[O-])cc1OC | -4.3% | -3.6%
Cc1cc(C)cc(C(=O)NC(CC(N)=O)c2ccc(NC3CCCCCC3)c([N+](=O)[O-])c2)c1 (stereo not drawn) | -24.4% | -7.2%
CCOC(=O)c1c(C)[nH]c(C)c1C(=O)COC(=O)/C=C/c1cccc(F)c1 | -12.2% | -16.5%
FC(F)(F)c1cnc(N2CCSCC2)c(Cl)c1 | 13.9% | -5.7%
CCOC(=O)C1CCCN(C(=O)c2ccc(CS(=O)(=O)Cc3ccccc3C)o2)C1 (stereo not drawn) | -8.9% | -11.0%
OCC1(Cc2ccc(Cl)cc2)CCN(CCCc2ccccc2)CC1 | -24.1% | i
OC(CSc1nnnn1-c1ccccc1)Cn1c2ccccc2c2ccccc21 (stereo not drawn) | -29.7% | ?
CCOC(=O)NC1(C(F)(F)F)C(=O)NC(C)=C1C(=O)OC (stereo not drawn) | -6.2% | -8.0%
Cc1ccc(S(=O)(=O)Nc2cc(Cl)c(O)c3ncccc23)cc1 | ? | ?

The last 2 entries of the section above come first, to join the parts:
structure | Vaccinia Venus | VACV mCherry inh
CCOC(=O)NC1(C(F)(F)F)C(=O)NC(C)=C1C(=O)OC (stereo not drawn) | -6.2% | -8.0%
Cc1ccc(S(=O)(=O)Nc2cc(Cl)c(O)c3ncccc23)cc1 | ? | ?
COc1ccccc1OCC(=O)Nc1ccc(S(=O)(=O)NC(C)=O)cc1 | -3.2% | i
COc1ccccc1-n1c(SCC(=O)c2ccc(O)cc2O)nc2cc([N+](=O)[O-])ccc21 | ? | ?
O=C(Cn1ncc2c3ccccc3n(Cc3ccc(F)cc3)c2c1=O)N1CCN(c2ncccn2)CC1 | -21.0% | -30.0%
CCOC(=O)C1CCN(C(=O)CN(Cc2ccc(Cl)cc2)S(C)(=O)=O)CC1 | -6.1% | ·
C=CCn1c(SCC(=O)NCC2CCCO2)nnc1-c1ccncc1 (stereo not drawn) | -8.0% | -14.9%
